NPR1 antag – blocks ANP-stimulated signaling of human Npr1 receptor. P16066. HEK293 hNpr1 GloSensor cGMP, ANP-stimulated luminescence. Potency, µM (highest dose often 46.3 µM), for the others: at the top dose activity change, negative = inhibition, actives largely listed as inhibitors. hit rate 1.6% among 76,000. AID 1347048; active = well fitted inhibition curve with a large enough effect; inconclusive = small, poorly fitted or top-dose-only effect; inactive = no such curve, though single readings can be large or run the other way;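 further: nearly all actives have a fitted effect of over 60% in size; nearly all hits also lower the signal before the agonist is added; a reference antagonist and vehicle were the controls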
Target sequence (P16066 whole entry, looked up): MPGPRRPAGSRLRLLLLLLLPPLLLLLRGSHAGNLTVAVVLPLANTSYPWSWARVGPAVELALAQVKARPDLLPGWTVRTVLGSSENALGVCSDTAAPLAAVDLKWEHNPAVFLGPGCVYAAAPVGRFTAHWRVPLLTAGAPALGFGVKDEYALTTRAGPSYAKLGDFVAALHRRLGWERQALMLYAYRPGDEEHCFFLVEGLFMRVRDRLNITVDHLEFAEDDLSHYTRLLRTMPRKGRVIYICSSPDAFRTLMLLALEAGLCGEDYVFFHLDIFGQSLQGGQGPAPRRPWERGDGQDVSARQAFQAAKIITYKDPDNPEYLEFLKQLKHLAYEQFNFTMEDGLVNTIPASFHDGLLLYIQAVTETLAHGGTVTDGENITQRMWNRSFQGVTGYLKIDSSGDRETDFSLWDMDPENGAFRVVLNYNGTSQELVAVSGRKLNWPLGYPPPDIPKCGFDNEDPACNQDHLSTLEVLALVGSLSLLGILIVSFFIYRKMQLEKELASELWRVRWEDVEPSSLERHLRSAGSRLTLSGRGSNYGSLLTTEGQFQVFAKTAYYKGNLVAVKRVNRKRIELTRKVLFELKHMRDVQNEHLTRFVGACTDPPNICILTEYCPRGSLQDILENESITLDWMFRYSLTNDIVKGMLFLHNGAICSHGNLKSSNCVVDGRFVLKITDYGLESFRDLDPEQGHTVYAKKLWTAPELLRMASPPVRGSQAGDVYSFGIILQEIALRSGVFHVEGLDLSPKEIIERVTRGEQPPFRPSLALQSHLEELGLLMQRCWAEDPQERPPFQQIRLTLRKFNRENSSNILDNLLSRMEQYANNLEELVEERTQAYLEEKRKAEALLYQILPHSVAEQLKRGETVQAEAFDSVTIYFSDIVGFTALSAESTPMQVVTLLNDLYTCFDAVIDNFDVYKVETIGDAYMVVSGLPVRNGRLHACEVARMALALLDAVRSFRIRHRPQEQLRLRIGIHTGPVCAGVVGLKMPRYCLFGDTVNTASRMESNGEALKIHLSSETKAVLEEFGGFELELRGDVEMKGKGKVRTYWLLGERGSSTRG
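Compound pre-incubated 30 min at room temperature on GloSensor-loaded HEK293 cells stably carrying hNpr1 and the pGS-40F cGMP biosensor. Stimulation uses hNppA at 0.1 nM final; luminescence is taken at baseline and 20 min post-agonist.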
Starred values were filed as active, the others as inactive; ? = inconclusive; [ ] = another dose, or the depositor's remark. On the % scale 0 is the no-effect control and ±100 the full control effect; potency means the concentration at half of the fitted maximal effect. Some of the compounds tested; count on the stated rates, not on these rows.

canonical_smiles	NPR1 antag
O=C(c1ccco1)N1CCN(C(=O)C2CCc3ncc(-c4ccc(F)cc4)n3C2)CC1 (stereo unspecified)	?
CC(=O)Nc1ccc(CN2CCN3C(=O)N(Cc4ccc(C)cc4)C[C@H]3C2)cc1	-25.6%[70.6 µM]
Cc1nc(N2CCC(C(=O)NC3CCCCCC3)CC2)cc(C(F)(F)F)n1	?
Cc1cn2nc(C(=O)N3CCC(NC(=O)c4ccc(C)c(F)c4)CC3)cc2c(=O)[nH]1	-22.8%
Cc1ccc(C(=O)N2CCC(n3cc(-c4nc(-c5ccccc5)no4)nn3)CC2)c(C)c1	?
CCOc1cc(C)c(CN2CCC3(C2)CN(C)C(=O)O3)cc1C(C)C (stereo unspecified)	-3.5%
N#Cc1cccc(C(=O)NC2CCN(c3cc(-c4ccc(F)cc4)[nH]n3)C2)c1 (stereo unspecified)	-11.3%
CC(C)c1noc(-c2cccn3c(CNC(=O)c4ccccc4Cl)nnc23)n1	1.1%
O=C1N(Cc2ccccn2)C[C@H]2CN(Cc3cccc(OC(F)(F)F)c3)CCN12	-16.4%[70.6 µM]
Cc1cc(C(=O)N2[C@@H]3CC[C@H]2CC(NC(=O)c2ccc(F)cc2)C3)nn1C (stereo partly specified)	-0.1%
O=C1CC(c2ccccc2)N(C(=O)CNC(=O)c2cc(C3CC3)[nH]n2)CCCCCCN1 (stereo unspecified)	-7.8%
COc1ccc(Nc2nccc3c(=O)cc(N4CCOCC4)oc23)cn1	9.4%[70.6 µM]
CN(Cc1cccnc1)C(=O)CC(c1ccccc1)c1ccccc1F (stereo unspecified)	-8.3%
CNC(=O)N1C[C@@H](Oc2ccccc2)C[C@H]1C(=O)NCCOC	0.6%
COCC[C@]1(O)CCN(C(=O)c2cccc(S(N)(=O)=O)c2)C[C@H]1C	3.4%

Reprinted from the part before: 4 compounds, followed by the next part.
canonical_smiles	NPR1 antag
COc1ccc(Nc2nccc3c(=O)cc(N4CCOCC4)oc23)cn1	9.4%[70.6 µM]
CN(Cc1cccnc1)C(=O)CC(c1ccccc1)c1ccccc1F (stereo unspecified)	-8.3%
CNC(=O)N1C[C@@H](Oc2ccccc2)C[C@H]1C(=O)NCCOC	0.6%
COCC[C@]1(O)CCN(C(=O)c2cccc(S(N)(=O)=O)c2)C[C@H]1C	3.4%
CCC(CC)CN1C[C@]23C=C[C@H](O2)C(C(=O)N2CC(n4nc(C)cc4C)C2)C3C1=O (stereo partly specified)	-0.4%
O=C(c1ccsc1)N1CCCC1c1nc(C2CCOCC2)no1 (stereo unspecified)	13.7%
COc1ccc(CN2Cc3[nH]nc(-c4ccccc4OC)c3CC2=O)cc1	-2.8%[70.6 µM]
CCc1ccc(S(=O)(=O)N2CCC(n3cnnc3CC)CC2)cc1	-21.4%
Cc1cc(C)cc(-c2ccc(C(=O)N3CCC(Oc4cccnc4)CC3)cn2)c1	-4.5%
Oc1ccc(-c2nc(C3CC3)nc3c2CCN(Cc2cccnc2)CC3)cc1	3.5%
O=C1NC2(CCCN(C(=O)c3ccccc3F)C2)Oc2ccccc21 (stereo unspecified)	18.6%[70.6 µM]
C[S+](=O)([O-])N1C[C@H](C(=O)Nc2ccccc2)C[C@@H]1c1ccc(F)cc1	-2.7%[70.6 µM]
CCc1ccccc1S(=O)(=O)N1CCC(n2cnnc2CC)CC1	-0.9%
CS(=O)(=O)N1CCC(C2CCN(C(=O)c3ccc4c(c3)OCO4)C2)CC1 (stereo unspecified)	-3.1%
COc1nc2nc(CCc3ccccc3)n(C)c2cc1-c1ccc(CO)cc1	-2.2%[70.6 µM]
COc1ccc(Cl)cc1S(=O)(=O)N1CCC(c2c[nH]c3c(C)cccc23)CC1	-14.3%
Cc1cc(C)n(C2CN(C(=O)COc3ccc(Cl)cc3Cl)C2)n1	-6.9%
COCCN(CC1CCCO1)c1nc(CCN)nc2ccccc12 (stereo unspecified)	-0.2%
Cc1ccc(C(=O)Nc2ccc3c(N4CCOCC4)ncnc3c2)cc1F	-10.7%
COc1cccc(-c2nc(C3CC(=O)N(c4ccc(F)cc4)C3)no2)c1 (stereo unspecified)	7.8%
CCN(CCn1cccn1)C(=O)c1ccc2nc(-c3ccc(F)cc3)cn2c1	0.6%
COc1ccc(C(=O)N2CCCCCCNC(=O)[C@@H]3C[C@@H](c4nc(-c5cccnc5)no4)C[C@@H]32)cn1	-4.4%
O=C(Cn1c2c(c(=O)n1Cc1ccccc1)CCN(Cc1ccccc1)C2)Nc1ccncn1	-1.0%
COc1ccc(OC)c(-c2cc(-c3ccccc3)nc3c(C)noc23)c1	-2.6%[70.6 µM]
CC1(CNCc2ccccc2)COc2ccc(C(=O)NCc3ccncc3)cc2N1 (stereo unspecified)	-4.0%[70.6 µM]
O=C(NCC1CC1)c1nc2c(o1)CCN(Cc1ccc(F)cc1F)CC2	25.1µM*
Cc1ccncc1NC(=O)CC1=C2CCCCC2N(C)C1=O (stereo unspecified)	-6.3%
CCC(=O)N(C1CCOCC1)C1CCN(Cc2cccc(Cl)c2)CC1	0.2%
Cc1cc2cc(-c3c(C)noc3C)nc(-c3ccsc3)c2o1	12.2%[70.6 µM]
Cc1c(F)cccc1NC(=O)C1CN(S(=O)(=O)C2CC2)CC12CCCCC2 (stereo unspecified)	-1.0%
Cc1cccc([C@H]2C[C@@H](O)[C@@H](O)[C@@H]2NC(=O)c2ccccc2)c1	-1.1%[70.6 µM]
CN(C)CC1(O)CCC2(CCN(C(=O)CCc3nc(-c4ccccc4)no3)CC2)CC1	-2.3%
Cn1ccc(NC(=O)C2(C)CCc3cnc(Nc4ccccc4)nc32)n1 (stereo unspecified)	-4.8%[70.6 µM]
Cc1ccc(-c2cc(N3CCCN(C(=O)Cc4cccs4)CC3)n[nH]2)cc1C	-22.2%

A draw from above in order of number of heavy atoms, high to low:
canonical_smiles	NPR1 antag
COc1ccc(C(=O)N2CCCCCCNC(=O)[C@@H]3C[C@@H](c4nc(-c5cccnc5)no4)C[C@@H]32)cn1	-4.4%
O=C(NCC1CC1)c1nc2c(o1)CCN(Cc1ccc(F)cc1F)CC2	25.1µM*
CCC(=O)N(C1CCOCC1)C1CCN(Cc2cccc(Cl)c2)CC1	0.2%
Cc1cccc([C@H]2C[C@@H](O)[C@@H](O)[C@@H]2NC(=O)c2ccccc2)c1	-1.1%[70.6 µM]

Other results follow.
canonical_smiles	NPR1 antag
COc1cccc(NC(=O)C2N(C(C)C)C(=O)C23CCCC3)c1 (stereo unspecified)	2.7%
O=C(CCc1nc(-c2cccnc2)no1)NCc1cc2n(n1)CCCNC2	2.5%
COc1ccc(-c2cnc3n[nH]c(-c4ccc5c(c4)OCO5)c3n2)cc1	7.7%[70.6 µM]
CCCNC(=O)N1CCC(N2CC(OCCOC)C23CCCCC3)CC1 (stereo unspecified)	-0.3%
CCCNC(=O)NC[C@H]1O[C@@H]2C[C@@H](CC(=O)N3CCC(F)(F)C3)O[C@@H]2[C@@H]1O	6.2%[70.6 µM]
CCC(c1cccs1)N1C(=O)[C@H]2CN(S(=O)(=O)c3cn(C)cn3)C[C@H]2C1=O (stereo partly specified)	3.1%
O=C(NCC12CCCN1CCC2)c1ccc(C2CCNC2)cc1 (stereo unspecified)	-1.2%
COc1ccc(C(=O)N[C@@H]2CN(Cc3ccncc3)C[C@H]2CN(C)C)c(OC)c1	-0.7%
Cc1noc(C)c1-c1cn(C)c(=O)n2cc(COc3ccc(Cl)cc3)nc12	-10.3%[70.6 µM]
COc1cccc(CN2C(=O)CCCCC2C(=O)NCCc2nc3ccccc3n2C)c1 (stereo unspecified)	-15.2%
O=C(NC[C@H]1O[C@@H]2C[C@@H](CC(=O)N3CCOCC3)O[C@@H]2[C@@H]1O)NC1CCCCC1	6.0%[70.6 µM]
CC(C)CCC(=O)NC1CCN(c2cn[nH]c(=O)c2)CC1	6.1%
C[C@H](O)c1onc(-c2ccccc2)c1C(=O)N1CCOCC1	3.2%[70.6 µM]
CCCNC(=O)C(NC(=O)c1ccc(C)cc1)C1CCN(C(=O)c2ccc(F)cc2)CC1 (stereo unspecified)	-1.8%
COc1ccc(CN2C=C(C(=O)OCc3nc(C)no3)C(C)=NS2(=O)=O)cc1	-6.7%

The listing continues:
smiles,NPR1 antag
CCNC(=O)N1CCC2(CC1)CC(N(CC)CC)CCO2 (stereo unspecified),30.1%
CC1=NOC2(CCN(Cc3ccncc3)CC2)C1,21.2%[70.6 µM]
O=C(NCC1(COc2cnccn2)C[C@@H](O)[C@@H](O)C1)N1CCOCC1 (stereo partly specified),-1.6%[70.6 µM]
Cn1ccnc1CN1CCCC(NC(=O)c2ccc3c(c2)CCCO3)CC1 (stereo unspecified),3.6%
O=C(NC(C(=O)NCc1ccco1)C1CCN(C(=O)C2CC2)CC1)c1ccccc1 (stereo unspecified),1.8%
Cn1ncc(N2CCC(CNC(=O)c3ccc(F)cc3Cl)C2)cc1=O (stereo unspecified),1.2%
COCCOC1CCOC2(CCN(C(=O)CCc3nc4ccccc4[nH]3)CC2)C1 (stereo unspecified),-15.3%
Cn1nccc1C(=O)N1CCCN(Cc2ccncc2)C(c2ccccc2)CC(=O)NCC1 (stereo unspecified),4.2%
O=C1NCCCCCCN(C(=O)Nc2ccc3c(c2)OCCO3)[C@H]2CCCC[C@@H]12,?
CN1C(=O)c2cccn2CC1C(=O)N1CC=C(c2ccccc2)CC1 (stereo unspecified),-17.9%
CN(C)C(=O)c1cccnc1OC1CCN(C(=O)c2ccc(F)c(F)c2)C1 (stereo unspecified),-2.0%
CCn1nccc1C(=O)N1CC(c2nc(CCOCC3CC3)no2)C1,-0.3%
O=C1CCN(C(=O)[C@@H]2CCCN2C(=O)Nc2ccc3c(c2)OCCO3)CCCCCCN1,2.8%
Cc1cnc(CC2CCN(C(=O)NCC(C)C)CC2)n1Cc1ccc(F)cc1,-1.0%
CN1C(=O)CC(C(=O)O)C12CCN(Cc1cnn(-c3ccc(F)cc3)c1)CC2 (stereo unspecified),-7.3%
COc1ccc(NC(=O)C2(C)CN(C)Cc3ccc(NCc4ccccc4)nc32)cn1 (stereo unspecified),-16.6%[70.6 µM]
COc1ccc(CN2C(=O)[C@@H]3C[C@@H](O)CN3C3(CN(C4CCN(C(C)=O)CC4)C3)C2=O)cc1,-0.6%
O=C(Nc1cccc(F)c1)c1cnc2c(c1)N([S+](=O)([O-])c1cccnc1)CCC2,-3.0%[70.6 µM]
COc1ccc(C(CC(=O)NCCC(C)C)c2c[nH]c3ccccc23)c(OC)c1 (stereo unspecified),-18.6%
O=C(NCc1ccco1)c1ccc2c(c1)n(Cc1ccc(F)cc1)c(=O)c1ccnn12,-5.4%
NC(=O)c1cc[nH]c1C1CCCN(Cc2ccc(Br)o2)C1 (stereo unspecified),-4.2%
CC(C)C[C@@H](NC(=O)C1=C[C@@H](NC(=O)Nc2ccccc2Br)[C@@H](O)[C@H](O)C1)C(N)=O,5.9%
Cc1ccccc1Nc1cnc2ccc(N3CCOCC3)nn12,?
CCn1cc(C(=O)N2CCC3(CC2)CN(c2ccncn2)CC3CO)cn1 (stereo unspecified),-3.4%
CC(C)NC(=O)NC[C@H]1OC[C@@H](NCc2cccs2)[C@@H]1O,-0.1%[70.6 µM]
Cc1cc(C(=O)NCC2(COc3ccc(S(C)(=O)=O)cc3)C[C@@H](O)[C@@H](O)C2)n(C)n1 (stereo partly specified),10.9%
CCC1(N2CCN(S(=O)(=O)c3ccccc3Cl)CC2)CCN(S(C)(=O)=O)C1 (stereo unspecified),0.9%
COc1ccc([C@H]2CN(c3nnnn3-c3ccccc3)C[C@@H]2N)cc1,-20.9%
CCc1cc(=O)n(CC(=O)Nc2ccccc2C)c(-c2ccccc2)n1,0.3%
Cc1cccc(S(=O)(=O)N2CCCC(Cn3c(C)nc4cccnc43)C2)c1 (stereo unspecified),-25.4%
CC1=C[C@@H](CNC(=O)CN(C)C)[C@H](C(C)C)C[C@H]1Cc1nc2ccc(C)cc2[nH]1,-3.9%[70.6 µM]
COc1ccccc1CCN1CCCC(CN(C)C(=O)c2cc(C)n(C)c2C)C1 (stereo unspecified),-0.7%
c1ccc(Cc2nnc([C@H]3CCN(Cc4ccc5c(c4)OCO5)C3)o2)cc1,-0.1%[70.6 µM]
COc1ccc(C(=O)N2CCC3(CC2)N=C(c2ccccc2)NO3)cc1,-2.4%
O=C(NCc1ccc2c(c1)OCO2)C1CCN(c2cc(C(F)(F)F)ncn2)CC1,?
COC[C@@H]1CN(Cc2cnn(C)c2C)C[C@H]1c1nc(C2CC2)no1,6.7%
Cc1ccnn1CCC(=O)N1CCC2(CC1)c1nc[nH]c1CCN2CC(C)C,6.1%
COC(=O)[C@@H]1Cc2nc[nH]c2CN1C(C)C,1.6%[70.6 µM]
COc1ccc(NC(=O)Cn2nc3c(cc2=O)CN(C(C)=O)CC3)cc1Cl,2.7%
COC(C)(C)C(=O)N1CCc2onc(-c3ccc4c(c3)OCO4)c2C1,5.5%
CCN(Cc1ccccc1F)C(=O)c1cc(COc2ccccc2)[nH]n1,5.3%
CN1C[C@@H]2CCCN3CCC[C@@H]([C@H]23)[C@H]1CCCC(=O)NCCN1CCOCC1,-9.5%
CN(C)C[C@H]1O[C@@H]2C[C@@H](CC(=O)NCc3cnn(C)c3)O[C@@H]2[C@@H]1O,-0.2%[70.6 µM]
FC1(F)CN[C@H](c2nc(-c3ccncc3)no2)C1,-12.3%

High-throughput results deposited in PubChem by National Center for Advancing Translational Sciences (NCATS).
